Vif TR-FRET: inhibitors of Vif binding to APOBEC3G peptide, primary screen, biochemical, TR-FRET, GST-Vif 1-94, biotin-A3G peptide, dose response retest (AID 1117319); Virion infectivity factor (Human immunodeficiency virus type 1 group M subtype B (isolate …; TR-FRET GST-Vif / biotin-A3G peptide binding; higher % means a stronger effect; test concentration not given here; strong numbers were not always called active; one-dose inhibition, %; IC50 in µM for titrated hits; hit rate 0.57% among 260,000;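 active = above the screen mean plus three standard deviations and confirmed in dose response; inconclusive = results disagree or hit not tested in dose response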;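 note: Vif residues 1-94 fused to GST binding biotinylated APOBEC3G peptide 110-148; 0% = full assay without inhibitor and 100% = GST in place of GST-Vif; retest series ran down from 100 µM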
A1 inh: caspase 3/7 activation in MEF A1-2A-BIM cells, primary screen, A1 inhibitor project, cell-based, luminescence, HTS; hit rate 0.066% among 330,000; Caspase-Glo 3/7 luminescence, 3 h; percent of clofoctol response, vehicle zero; caspase activation, % (concentration not given with the values);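 active = over half of replicate activation scores above 10%, or exactly half above 10 with the replicate mean above 10; inconclusive = replicate mean below 10 yet half the replicates above 10; inactive = over half of replicates below 10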;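 note: wells of about 30 µL received 50 nL stock; many hits fall short of the cut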
AF4-AF9 inh: inhibitors of AF4 peptide binding to AF9, primary screen, biochemical, AlphaScreen, biotin-AF4 peptide, FLAG-AF9, single point; Protein AF-9 (Homo sapiens), P42568; inhibition, % at 10 µM; hit rate 0.47% among 350,000;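 active = every replicate reaching a set inhibition limit, whatever the replicate mean, cut at about 25% in these data; inconclusive = mean inhibition reaches that limit but some replicates miss it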;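 note: 0% = plate neutral control median and 100% = total signal loss; the record names both 10 and 1 µM as test concentration; the first replicate is given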
Target sequence (P42568 whole entry, looked up): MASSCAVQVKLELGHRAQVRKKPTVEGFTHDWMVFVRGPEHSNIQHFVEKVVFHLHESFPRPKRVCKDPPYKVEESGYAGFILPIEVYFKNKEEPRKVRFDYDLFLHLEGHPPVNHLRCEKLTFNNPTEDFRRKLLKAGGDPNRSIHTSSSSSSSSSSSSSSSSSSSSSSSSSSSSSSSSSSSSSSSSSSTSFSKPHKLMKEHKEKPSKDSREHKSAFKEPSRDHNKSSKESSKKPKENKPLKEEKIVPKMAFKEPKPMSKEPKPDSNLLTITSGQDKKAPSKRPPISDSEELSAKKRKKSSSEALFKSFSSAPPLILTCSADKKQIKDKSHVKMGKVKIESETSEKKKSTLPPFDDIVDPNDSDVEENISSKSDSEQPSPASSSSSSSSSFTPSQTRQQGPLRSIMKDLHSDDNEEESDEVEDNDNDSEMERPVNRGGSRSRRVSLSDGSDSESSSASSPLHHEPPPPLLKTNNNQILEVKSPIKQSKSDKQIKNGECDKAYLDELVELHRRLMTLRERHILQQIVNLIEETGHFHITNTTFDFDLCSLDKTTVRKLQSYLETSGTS
Calb FLC: C. albicans growth inhibition with fluconazole, primary screen, CaCi-2 strain, Alamar Blue fluorescence. C. albicans CaCi-2 (fluconazole-resistant clinical isolate) + fluconazole, 48 h. growth inhibition, % (test concentration not listed). hit rate 0.57% among 300,000;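 active = most replicates above 75%; inconclusive = exactly half above 75%; inactive = most below 75%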;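 note: all wells also contain fluconazole at 8 µg/ml as a sub-toxic cotreatment; 0% = median of DMSO wells and 100% = median of geldanamycin control wells; wells of about 8 µL received 7.5 nL stock; the first replicate is given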
Beta apoptosis: inhibitors of cytokine-induced beta cell apoptosis, primary screen, luminescence | protection from apoptosis, % (no concentration beside the values) | hit rate 0.8% among 300,000 | INS-1E cytokine-induced death, ATP luminescence, 48 h; percent of positive-control rescue, neutral wells zero;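 active = all replicates at 75% or more, or half of them and the mean; inconclusive = half reach 75% but not the mean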;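 note: 0% = cytokine-treated negative control wells and 100% = positive control rescue; higher means more ATP so stronger rescue from cytokine killing; wells of about 40 µL received 100 nL stock; the first replicate is given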
Ecoli rRNA inh: reduced GFP signal of wild-type E. coli, primary screen, bacterial rRNA inhibitor project, GFP/RFP fluorescence, OD600, single point | GFP signal change (wild-type ribosome), % (concentration not given with the values) | hit rate 1.6% among 350,000 | AID 720706, 2013 | E. coli WT GFP vs humanized-ribosome RFP mutants, 24 h; active compounds read low; DMSO median 0, no signal -100;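 active = significant combined selectivity score with lowered wild-type GFP, culture density cut under 30%, mutant RFP and density less affected; inactive = any of these conditions unmet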; note: one replicate is shown; some compounds called inactive have numbers as strong as hits
RanGTP-Impb inh: inhibitors of RanGTP-importin-beta interaction, primary screen, biochemical, FRET, CFP-Ran, YFP-importin-beta, homogeneous | cell-free CFP-Ran/YFP-importin-beta FRET ratio | inhibition, % (concentration not given with the values) | hit rate 1.1% among 300,000 | AID 2216, 2009;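 active = most replicates above 15%; inconclusive = exactly half above 15%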;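 note: 0% = DMSO wells and 100% = Ran loaded with GDP instead of GTP; wells of about 40 µL received 100 nL stock; the first replicate is given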
T cruzi inh: inhibitors of intracellular T. cruzi growth, primary screen, luminescence, NIH3T3 host cells; T. cruzi beta-gal in NIH3T3, 90 h; hit rate 1.4% among 300,000; inhibition, % (no concentration beside the values);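 active = mean inhibition across valid replicates above about 55%, limit read from the data; inconclusive = mean below that limit but half or more replicates reach it; inactive = mean below it, under half of replicates reach it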;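 note: signal also drops with host cell toxicity which is not excluded here; 0% = plate median of DMSO wells and 100% = zero luminescence signal; higher percent means less beta-gal luminescence so fewer parasites; stock transfer was 50 nL into about 50 µL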
Ecoli rRNA inh OD600: further read-out of Ecoli rRNA inh, marked with its call; OD600 change, %; measured here: OD600 growth;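 optical density of the mix in the first replicate; 0 = DMSO median and -100 = no signal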
Ecoli rRNA inh RFP: recorded beside Ecoli rRNA inh, whose call it bears; RFP signal change, %; measured here: RFP humanized mutant strains;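 first replicate; 0 = DMSO median and -100 = no signal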
An asterisk follows results filed as active; ? = inconclusive; . = not tested or not shown; & = joins results of further samples.

SMILES	Vif TR-FRET	A1 inh	AF4-AF9 inh	Calb FLC	Beta apoptosis	Ecoli rRNA inh	Ecoli rRNA inh OD600	Ecoli rRNA inh RFP	RanGTP-Impb inh	T cruzi inh
C/C(=N\NC(=O)c1ccccc1C)c1cccc([N+](=O)[O-])c1	21%	1.3	.	-1	6	.	.	.	8.9	0
Cc1ccc2nc(NC(=O)CSc3nc4c(c(=O)n3C)SC(C)C4)sc2c1 (centres undefined)	-2%	0.4	.	-2	.	.	.	.	7.7	-22
CCN1CCN(S(=O)(=O)c2ccc(Cl)c(C(=O)N(C)Cc3cccc(OC)c3)c2)CC1	0%	2.9	-0.4	-6	-10	3	5	1.6	.	0
CCOC(=O)c1cc2c(ccn2C)n1CC(=O)N1CCCC(C)C1 (centres undefined)	15%	0.8	.	11	-3	.	.	.	24*	-2
CCCCN(CC)C(=O)c1cccc(Cl)c1	-3%	0.0	.	12	.	.	.	.	-0.5	-5
O=C(CSc1nnc(NC(=O)C2CC(=O)N(c3ccccc3)C2)s1)NCC1CCCO1 (centres undefined)	4%	0.2	-2.6	1	2	12	16	2.1	-0.5	5
O=S(=O)(CCc1nc2ccccc2[nH]1)c1ccc(Br)cc1	17%	-0.6	.	4	3	.	.	.	-1.5	-15
Cc1cc(C)c(NC(=O)C2CCCO2)c(C)c1 (centres undefined)	.	0.4	-3.3	0	.	4	6	-2.4	-0.4	-4
CCOc1cccc(NC(=O)C2CC(=O)N(c3ccc(F)cc3)C2)c1 (centres undefined)	.	0.7	0.0	-5	2	4	9	1.1	3.9	5
COc1ccc(-c2csc(/C(C#N)=C/Nc3ccc4c(c3)OCCO4)n2)cc1	.	0.3	-0.9	-2	14	6	1	1.9	-2.1	1

Profiles, looked up by structure. Order of values: Vif TR-FRET | A1 inh | AF4-AF9 inh | Calb FLC | Beta apoptosis | Ecoli rRNA inh | Ecoli rRNA inh OD600 | Ecoli rRNA inh RFP | RanGTP-Impb inh | T cruzi inh
`CCOc1cccc(NC(=O)C2CC(=O)N(c3ccc(F)cc3)C2)c1` (centres undefined) reads . | 0.7 | 0.0 | -5 | 2 | 4 | 9 | 1.1 | 3.9 | 5
`C/C(=N\NC(=O)c1ccccc1C)c1cccc([N+](=O)[O-])c1` reads 21% | 1.3 | . | -1 | 6 | . | . | . | 8.9 | 0
`COc1ccc(-c2csc(/C(C#N)=C/Nc3ccc4c(c3)OCCO4)n2)cc1` reads . | 0.3 | -0.9 | -2 | 14 | 6 | 1 | 1.9 | -2.1 | 1
`CCOC(=O)c1cc2c(ccn2C)n1CC(=O)N1CCCC(C)C1` (centres undefined) reads 15% | 0.8 | . | 11 | -3 | . | . | . | 24* | -2
`O=C(CSc1nnc(NC(=O)C2CC(=O)N(c3ccccc3)C2)s1)NCC1CCCO1` (centres undefined) reads 4% | 0.2 | -2.6 | 1 | 2 | 12 | 16 | 2.1 | -0.5 | 5

Additional records
SMILES	Vif TR-FRET	A1 inh	AF4-AF9 inh	Calb FLC	Beta apoptosis	Ecoli rRNA inh	Ecoli rRNA inh OD600	Ecoli rRNA inh RFP	RanGTP-Impb inh	T cruzi inh
CCOc1ccccc1NC(=O)CN(c1ccc(Cl)cc1)S(C)(=O)=O	.	-0.7	2.5	30	-6	-20	-42	-12	2.4	-2
O=C(CSc1nc2ncccc2[nH]1)c1cccc([N+](=O)[O-])c1	.	-0.8	.	9	.	.	.	.	-4.1	-9
O=C(CC1CCOCC1)Nc1ccc(Cl)c(Cl)c1	3%	-1.2	-0.9	-9	3	-16	-19	-1.1	3.9	-4
COc1ccc2nc(C)cc(N/N=C/c3cccc(OC)c3O)c2c1	3%	0.2	25*	-14	29	-33	-65	-2.1	-46	18
Cc1c(C(C)(C)O)[nH]c2cc(C(F)(F)F)ccc12	.	0.7	2.4	-14	-2	-41	-62	-12	1.6	-12
Cc1c(O)c(=O)c2ccccc2n1C	7%	0.3	5.4	10	-14	23	16	-0.6	3.3	-13
O=C(NC(NNc1ccc([N+](=O)[O-])cc1)(C(F)(F)F)C(F)(F)F)c1ccccc1Cl	0%	-1.7	.	-29	1	.	.	.	23*	-18
COc1ccc(S(=O)(=O)c2ccc(OCC3CO3)cc2)cc1 (centres undefined)	2%	0.2	0.3	-7	-9	-6	-3	1.2	-3.0	5
c1ccc(NC2=Nc3ccccc3CS2)cc1	1%	-5.4	.	-8	-3	.	.	.	0.6	-4
O=C(COC(=O)c1ccc2ncsc2c1)NCc1ccccc1Cl	.	-0.6	2.7	.	-6	5	2	0.4	.	.
O=c1cc(-c2ccco2)nc(-c2cccs2)o1	8%	0.3	.	1	-9	.	.	.	-0.2	?
COC(=O)c1ccccc1NC(=O)Oc1ccc(C(C)C)cc1	-6%	1.5	-4.2	-5	-4	4	-12	3.0	-0.2	-20
CCOc1ccccc1NC(=O)CSc1ccc2nnc(-c3cccnc3)n2n1	.	-0.1	-1.4	-6	3	15	7	0.3	0.1	7
O=C(CCNC(=O)C1CCN(S(=O)(=O)c2ccccc2)CC1)Nc1cccc(C(F)(F)F)c1	.	-1.4	-0.7	-3	.	-1	3	0.9	-2.1	21
Clc1cccc(C2Nc3cccc4cccc(c34)N2)c1Cl	.	-0.2	6.6	14	0	1	34	-1.1	2.1	2
Cc1ccccc1C(=O)Nc1c(C(=O)N(CCN(C)C)Cc2ccco2)oc2ccccc12	.	0.0	13	-1	-6	0	6	3.3	2.7	47
Cc1cc(C)n(-c2nnc3n2N=C(c2ccccc2)CS3)n1	3%	-1.6	.	48	-5	.	.	.	-1.1	11
CC(=O)Nc1cccc(N(C(=O)C2COc3ccccc3O2)C(C(=O)NC2CCCCC2)c2cn(C)nc2C)c1 (centres undefined)	-1%	0.0	-1.1	-4	.	4	14	-0.2	6.3	0
N#Cc1nc(-c2ccccc2F)oc1NCCN1CCOCC1	-3%	0.1	-1.5	-9	-1	5	3	0.5	?	3
O=C1NCCCCC1NS(=O)(=O)c1cccc(C(F)(F)F)c1 (centres undefined)	-4%	0.1	-2.4	0	.	1	11	0.4	2.4	4
Cn1c(CC(=O)Nc2ccccc2)nnc1SCC(=O)c1ccccc1	5%&0%	0.9	.	-3	-2	.	.	.	-0.9	-2
CN(C)CCCN(C(=O)c1ccc(S(=O)(=O)N2CCc3ccccc3C2)cc1)c1nc2c(F)cc(F)cc2s1	-1%	-0.6	.	-17	.	.	.	.	?	50
COc1ccc(C(=O)NCCS(=O)(=O)NCc2ccc(C)cc2)cc1	1%	0.2	0.6	-3	1	2	3	1.7	2.3	4
COc1ccccc1CNCC(=O)Nc1ccccc1-n1cccc1	1%	0.2	5.4	0	0	-12	-8	-0.8	1.3	0
CCOCCCNC(=O)C(NC(=O)c1ccc(=O)[nH]c1)c1ccccc1 (centres undefined)	0%	0.1	.	-4	-1	.	.	.	-2.1	0
Cc1nc(-c2ccc(C(=O)O)cc2)cs1	-4%	-4.7	.	-4	-9	.	.	.	-0.1	-11
COc1ccc(NC(=S)N2CCCC2c2ccc(OC)c(OC)c2)cc1 (centres undefined)	-8%	0.1	-5.6	5	-5	-3	11	10	-0.8	-16
Cc1csc(=O)n1CCC(=O)OCC(=O)Nc1ccc(C(N)=O)cc1	28%	-0.9	-2.1	0	-1	8	11	0.7	6.3	-7
COC(=O)c1ccc(C)c(NS(=O)(=O)c2ccc(NC(C)=O)cc2)c1	79%	-0.5	4.4	-15	-2	-4	6	1.7	-1.5	-9
CCCCNC(=S)N(CCCO)Cc1cc2cc3c(cc2[nH]c1=O)OCCO3	-5%	-0.2	-1.2	-16	5	11	3	-1.6	0.1	15
CCOc1cccc(CN2CCN(CCc3ccccc3)C(CCO)C2)c1O (centres undefined)	6%	-0.2	1.9	-8	-7	8	0	4.2	-2.3	11
COc1ccc(C(=O)NCCc2c[nH]c3ccccc23)cc1OC	17%	-1.1	3.2	-5	-6	-6	-7	-5.1	0.2	-9
COc1ccc(C(=O)c2cc3cccc(OC)c3o2)cc1	-6%	-0.5	0.3	3	8	-18	-23	-9.0	-0.8	13
CS(=O)(=O)Nc1ccc(C(=O)Nc2ccc3c(c2)OCO3)cc1	4%	-3.3	-2.9	-7	-1	3	3	-1.5	?	-15
CCOC(=O)C1CCN(C(=O)CN2C(=O)NC(C)(c3ccc4cc(OC)ccc4c3)C2=O)CC1 (centres undefined)	-7%	-0.4	-5.2	.	-4	-1	-25	-3.2	.	.
O=C(CN1CCN(c2ncc(C(F)(F)F)cc2Cl)CC1)NCCNc1ncc(C(F)(F)F)cc1Cl	-2%	1.0	.	16	8	.	.	.	6.7	-1
C/C(=N\NC(=O)c1cccc(F)c1)c1ccc(Br)s1	12%	-0.3	.	-28	9	.	.	.	-2.4	52
COc1ccc(-c2noc(CCC(=O)Nc3nc4ccccc4s3)n2)cc1	7%	0.1	.	-3	-4	.	.	.	-0.2	2
Cc1cc(C)n(C(=O)C(C(=O)c2ccccc2)C(C)C)n1 (centres undefined)	-7%	-1.6	1.7	18	0	3	18	0.2	1.0	0
Cc1noc(C)c1COC(=O)c1cc2c3ccccc3n(C)c2s1	28%	0.1	.	.	1	-8	-18	-3.8	.	.
Cc1cnc(-c2nnc(N(C)C(=O)C3CCCO3)s2)cn1 (centres undefined)	?	1.1	.	2	3	.	.	.	3.6	-6
C/C(=N\NC(=O)CN1CCCCC1)c1cccc([N+](=O)[O-])c1	.	0.4	1.7	-7	.	.	.	.	6.5	4
CN1C(=O)CC(Sc2ccccc2C(=O)O)C1=O (centres undefined)	4%	-0.5	2.4	-13	-8	15	14	-3.6	-0.4	-16
CCOC(=O)CNC(=O)c1cc(-c2ccc3c(c2)OCCO3)oc1C	-2%	-5.5	.	21	-7	.	.	.	0.3	2
Cc1ccc(CNC(=O)C2CCN(S(=O)(=O)N3CCOCC3)CC2)cc1	8%	0.2	.	16	-3	.	.	.	-0.8	-14
COc1cc(-c2noc(-c3cccs3)n2)cc(OC)c1OC	?	-0.7	.	0	-5	.	.	.	7.5	30
CCSc1ncc(Cl)c(C(=O)Nc2ccccc2Cl)n1	-6%	-0.6	-1.4	-1	-1	0	10	-3.0	3.3	11
CCCc1cc(=O)oc2cc(C)cc(OCC(=O)NC(Cc3ccc(Cl)cc3)C(=O)O)c12 (centres undefined)	.	0.5	-2.4	12	.	-11	2	-8.1	-0.7	-8

Screens from PubChem BioAssay.

Some of the compounds tested (hit frequency here may not be typical).
